KCNQ2 pot: KCNQ2 (rat) channel potentiation. AID 2239. B-score at 10 µM. actives 0.54% (n = 310,000). CHO-K1 KCNQ2, FluxOR thallium flux fluorescence; hits give high values. O88943;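 active = fluorescence ratio B-score at least 3 SD of library B-scores, with initial fluorescence B-score within 3 SD, cut at about 5.3 in these data; same plate scores as AID 2156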;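 also: B-score of peak minus minimum over baseline fluorescence ratio after K+ and Tl+ stimulus; positive B-score means potentiation of KCNQ2 with more thallium influx and brighter signal; only the inactives scoring about 0 or higher are listed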
Target sequence (O88943 whole entry, looked up): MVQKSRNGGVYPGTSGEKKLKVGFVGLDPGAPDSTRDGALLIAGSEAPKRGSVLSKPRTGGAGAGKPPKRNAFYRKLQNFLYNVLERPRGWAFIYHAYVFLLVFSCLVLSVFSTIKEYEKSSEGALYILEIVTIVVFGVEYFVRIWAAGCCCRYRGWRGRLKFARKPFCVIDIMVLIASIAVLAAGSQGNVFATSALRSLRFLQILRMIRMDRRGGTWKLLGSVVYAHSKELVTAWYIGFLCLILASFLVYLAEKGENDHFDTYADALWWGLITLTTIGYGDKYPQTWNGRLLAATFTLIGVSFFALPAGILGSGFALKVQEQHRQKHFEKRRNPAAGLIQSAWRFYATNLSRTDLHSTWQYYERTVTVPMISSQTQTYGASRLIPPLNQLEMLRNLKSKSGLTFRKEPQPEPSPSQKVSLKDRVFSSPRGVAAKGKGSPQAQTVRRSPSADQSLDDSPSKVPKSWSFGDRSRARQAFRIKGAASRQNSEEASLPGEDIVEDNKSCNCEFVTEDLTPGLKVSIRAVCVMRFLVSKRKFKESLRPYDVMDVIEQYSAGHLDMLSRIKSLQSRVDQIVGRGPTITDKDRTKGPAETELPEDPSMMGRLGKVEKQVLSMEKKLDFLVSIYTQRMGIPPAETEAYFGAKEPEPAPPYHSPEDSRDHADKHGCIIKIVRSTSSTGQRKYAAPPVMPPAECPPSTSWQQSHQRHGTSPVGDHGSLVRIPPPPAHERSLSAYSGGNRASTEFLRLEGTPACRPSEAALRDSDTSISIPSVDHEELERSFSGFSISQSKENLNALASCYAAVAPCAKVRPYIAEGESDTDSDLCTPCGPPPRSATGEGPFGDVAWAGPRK
KCNQ2 pot baseline: also measured in KCNQ2 pot; calls as there; B-score; compound at 10 µM; measured here: initial fluorescence intensity artifact check;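 brightness before thallium and not channel activity; 0 = typical well and far values either way flag optical interference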
Numbers without * were called inactive. This is a subset; the hit share may differ from the screen's.

SMILES	KCNQ2 pot	KCNQ2 pot baseline
Cc1ccccc1NC1=NC(=S)N(c2ccccc2)C12CCOC(C)(C)C2 (centres undefined)	0.22	-2.42
Cn1cc(C(=O)N/N=C/C(Br)=C/c2ccccc2)ccc1=O	0.11	-1.22
N#Cc1cc(Sc2ccccn2)c(Sc2ccccn2)cc1C#N	0.77	-0.64
Cc1cccc(N2CCN(C(=O)C3CCN(S(=O)(=O)N4CCOCC4)CC3)CC2)c1C	1.44	0
CCn1c(CNC(=O)c2ccccc2F)nnc1SCCOc1ccccc1	0.62	-0.72
Cc1ccccc1CSCCNC(=O)c1ccc(N(C)S(=O)(=O)c2ccccc2)cc1	0.37	1.32
CC(=O)c1cccc(NC(=O)/C=C/c2ccc([N+](=O)[O-])s2)c1	0.28	0
COc1ccc(S(=O)(=O)Cc2ccc(C(=O)NCCc3ccc(S(N)(=O)=O)cc3)o2)cc1	1.62	0.03
CC(Sc1cnccn1)C(=O)O (centres undefined)	0.72	-0.91
O=C(NCC1CCCO1)c1ccc(COc2ccccc2Br)cc1 (centres undefined)	5.3*	-0.37*
COc1ccc(/C=N/Nc2cc(C)nc(NS(=O)(=O)c3ccc(C)cc3)n2)cc1	0.34	0.73
Cn1c(=O)[nH]c(=O)c2c1nc(N1CCCC1)n2CCO	0.45	0.55
COc1ccccc1C(=O)NC(C)c1nc2ccccc2[nH]1 (centres undefined)	0.27	2.13
COC(=O)c1ccc(CSc2nnc3c(n2)[nH]c2ccccc23)cc1	0.15	0.42
CCOC(=O)CNC(=O)c1cccs1	0.42	1.34
Cc1sc(NC(=O)CN(Cc2ccc(F)cc2)C(=O)C(C)C)c(C(N)=O)c1C	0.13	0.15
CCC(NC(=O)c1cc(COc2ccc(F)c(F)c2)on1)c1ccncc1 (centres undefined)	0.82	0.01
CN(CC(=O)Nc1ccc(F)cc1)CC(=O)Nc1ccc(F)c(F)c1F	0.1	1.23
Cc1cccc(NC(=S)N=Nc2c(O)n(C)c3ccc(S(=O)(=O)N4CCOCC4)cc23)c1	0.01	-0.73
CS(=O)(=O)NCc1ccc(C(=O)O)cc1	1.32	0.88
O=C(Nc1ccncc1)c1ccc(F)cc1	0.57	0.9
CCc1ccc(/C=N/n2c(COc3ccccc3)n[nH]c2=S)cc1	0.36	0.69
CCOC(=O)NC(=O)C(=CNc1cccc(OC)c1)C(=O)NC(=O)OCC	1.66	0.24
CC(C)[C@@H]1NC(=O)N(c2ccc(Oc3ccccc3)cc2)C1=O	0.75	0.95
CCOC(=O)N1C(=O)[C@@](c2ccc(Cl)cc2)(C(C)C)N1C(=O)OCC	0.02	-0.52
Other results
SMILES	KCNQ2 pot	KCNQ2 pot baseline
O=C(CSC1=NNC(c2ccccn2)S1)Nc1ccccc1 (centres undefined)	0.02	-0.92
CCOC(=O)c1nc2nc(-c3cccs3)cc(C(F)(F)F)n2n1	0.66	0.01
Cc1ccc(CCC(=O)Nc2ncc(Cc3cc(Cl)ccc3Cl)s2)o1	0.02	-1.82
COc1cc(CN2CCC(C(=O)NC3CCCC3)CC2)cc(Br)c1O	0.27	-0.74
CN(C)c1ccc(C=C2C(=O)OC3(CCCC3)OC2=O)cc1	0.5	-0.72
CN(C(=O)CCS(=O)(=O)c1cc2c(cc1Cl)NC(=O)CO2)C1CCCCC1	0.04	-0.58
O=C(C1CCC(CNc2nc(=S)[nH]c3ccccc23)CC1)N1CCN(c2ccccn2)CC1 (centres undefined)	0.74	0.17
OC(C#CCN1CCCCCC1)(c1ccccc1)c1cccnc1 (centres undefined)	0.45	0.12
CCOc1cc(Br)cc(C(c2c(C(=O)O)[nH]c3ccccc23)c2c(C(=O)O)[nH]c3ccccc23)c1O	0.03	0.1
COc1ccc(C(C(=O)NC2CCCC2)N(CCN(C)C)C(=O)c2snc(C(N)=O)c2N)cc1 (centres undefined)	1.24	-0.77
CCC/C(=N\NC(=O)c1ccc(CSc2nncn2C)cc1)c1ccccc1	0.44	1.5
CC(=O)OCC1O[C@@H](O[C@@H]2C[C@H]3C(C)(C)[C@H](OC(C)=O)CC[C@]3(C)[C@H]3CC[C@]45C[C@]4(CC[C@H]5[C@@H](C)C[C@@H](O)[C@H](O)C(C)(C)O)[C@@]32C)[C@H](O)[C@@H](O)[C@@H]1O (some centres undefined)	4.36	-1.18
C=CCN(CC=C)S(=O)(=O)c1ccc2nsnc2c1	0.04	-0.04
COc1ccccc1NC(=O)CCS(=O)(=O)c1ccc2c(c1)NC(=O)C(C)S2 (centres undefined)	1.52	0.4
Cn1cnnc1SCC(=O)Nc1ccc2c(c1)CCC2	1.38	0.34
CCOc1ccccc1NC(=O)CSc1nnc2ccc(-c3ccncc3)nn12	0.95	-0.31
CSc1ccccc1C(=O)Nc1ccccc1C(=O)N1CCCC1	0.05	-1.21
Cc1nnc(NC(=O)CSc2nc3ccccc3[nH]2)s1	0.42	0.16
CC(C)CN1CCNC(=O)C1CC(=O)N(C)CC1CCOCC1 (centres undefined)	0.52	-0.03
O=C(CCSCc1ccc(Cl)cc1)NCc1cccnc1	0.57	-1.16
O=C(CCc1nc(-c2ccccc2F)no1)NCc1ccco1	0.88	-0.44
O=C(CCN1CCN(C(=O)c2ccco2)CC1)Nc1ccc(F)cc1	0.52	0.48
COc1ccc(-n2c(N)c(C(=O)NCc3ccco3)c3nc4ccccc4nc32)cc1	2.01	-0.01
COc1ccc(COC(=O)NC(C(=O)O)c2ccccc2)cc1 (centres undefined)	0.03	3.77
S=c1[nH]nc(-c2ccccc2Cl)n1Cc1ccccc1	1.43	-1.1

Entries of single compounds from above. Screens in order: KCNQ2 pot, KCNQ2 pot baseline
COc1ccc(COC(=O)NC(C(=O)O)c2ccccc2)cc1 (centres undefined) across the screens: 0.03, 3.77
CCOc1ccccc1NC(=O)CSc1nnc2ccc(-c3ccncc3)nn12 across the screens: 0.95, -0.31
S=c1[nH]nc(-c2ccccc2Cl)n1Cc1ccccc1 across the screens: 1.43, -1.1
CCOC(=O)NC(=O)C(=CNc1cccc(OC)c1)C(=O)NC(=O)OCC across the screens: 1.66, 0.24
Cc1ccccc1NC1=NC(=S)N(c2ccccc2)C12CCOC(C)(C)C2 (centres undefined) across the screens: 0.22, -2.42

Continuation.
SMILES	KCNQ2 pot	KCNQ2 pot baseline
CC(C)(C)Cc1nnc(NC(=O)CCC2CCCCC2)s1	0.09	-0.92
CN(CC(=O)Nc1ccccc1Cl)C(=O)Cn1nnc(-c2ccc(F)cc2)n1	0.07	0.9
CC1(c2nnc(-c3ccc(Cl)cc3)o2)CC(c2ccncc2)=NO1 (centres undefined)	1.3	0.05
COc1ccc(OC)c([C@@H]2OCCC=C[C@H]2C)c1	0.01	2.58
CC(=O)Nc1cccc(C(=O)NCC2(N3CCCCC3)CCCCC2)c1	0.86	-2.4
CN(NC(=O)c1ccccc1)C1=NS(=O)(=O)c2ccccc21	0.77	-0.01
NC(=O)N/N=C/CCc1ccccc1	1.03	-0.39
COc1ccc(Cc2noc(CN3CCN(Cc4csc(C)n4)CC3)n2)cc1OC	0.89	0.7
CCS(=O)(=O)Nc1ccc(C2=NN(C(=O)c3ccco3)C(c3ccco3)C2)cc1 (centres undefined)	0.27	-0.04
Cc1ccc(Nc2nc(-c3sc(NC(=O)c4ccco4)nc3C)cs2)cc1	2.37	1.44
CC1(C)CC(=O)C=C(c2cccs2)C1	0.12	0.87
O=C(COc1ccc(F)c(Cl)c1)N1CCN(c2ccccn2)CC1	0.12	-1.08
CCCOc1cccc(C(=O)Nc2cccnc2)c1	1.7	-0.5
O=C(Nc1ccc(S(=O)(=O)Nc2ccccn2)cc1)c1cccc([N+](=O)[O-])c1	0.8	0.5
COc1ccc(N2C(=O)CC(N(Cc3ccc(S(N)(=O)=O)cc3)C(C)=O)C2=O)cc1 (centres undefined)	0.67	0.2
Cc1ccc(N(CC(O)CN2CCCCC2)S(=O)(=O)c2ccccc2)cc1 (centres undefined)	0.43	0.01
Cc1cccc(C(=O)NCCC(=O)Nc2ccc(C)c(F)c2)c1	0.99	-0.15
COc1cc(/C=C2\C(=N)N3N=C(S(C)(=O)=O)SC3=NC2=O)cc(OC)c1OCCOc1cccc(C)c1	3.53	-3.27
CN1CCN(C(=O)c2ccccc2-c2nc(-c3ccccc3)no2)CC1	0.03	-1.61
Cc1ccc2nc(SCC(=O)OCc3ccccc3)nc(=O)n2c1	0.98	-0.62
CC/C=C/C(=O)N1CC2(CC(c3cccc(NC(=O)COc4ccc(Cl)cc4)c3)=NO2)C[C@H]1C(N)=O (some centres undefined)	0.93	1.14
CCN1CCN(c2cc(C)c3cc(NC(=O)c4cccnc4Cl)ccc3n2)CC1	1.49	0.37
Cc1nc(NS(=O)(=O)c2ccccc2)sc1NC(=O)OCCN(C)C	2.14	0.29
Cc1nn(Cc2ccc(C(=O)N/N=C/c3ccncc3)o2)c(C)c1Cl	2.22	0.61
Cc1ccc(-n2c(=O)c3ccccc3n(CC(=O)C(C)(C)C)c2=O)cc1	0.2	0.59

The closing 5 records of the part above lead into the next:
SMILES	KCNQ2 pot	KCNQ2 pot baseline
CC/C=C/C(=O)N1CC2(CC(c3cccc(NC(=O)COc4ccc(Cl)cc4)c3)=NO2)C[C@H]1C(N)=O (some centres undefined)	0.93	1.14
CCN1CCN(c2cc(C)c3cc(NC(=O)c4cccnc4Cl)ccc3n2)CC1	1.49	0.37
Cc1nc(NS(=O)(=O)c2ccccc2)sc1NC(=O)OCCN(C)C	2.14	0.29
Cc1nn(Cc2ccc(C(=O)N/N=C/c3ccncc3)o2)c(C)c1Cl	2.22	0.61
Cc1ccc(-n2c(=O)c3ccccc3n(CC(=O)C(C)(C)C)c2=O)cc1	0.2	0.59
COc1ccc(NC(=O)c2ccc(-c3ccc([N+](=O)[O-])cc3)o2)cc1	1.26	-0.21
O=C(NCN1CCN(c2ccccc2F)CC1)c1ccccc1	0.16	0.72
CCOC(=O)N1CCN(C(=O)Cn2nc(-c3ccc(Cl)cc3)ccc2=O)CC1	0.09	1.7
O=C(Nc1nc2c(s1)CCCC2)c1ccc(S(=O)(=O)N2CCCc3ccccc32)cc1	0.01	-0.15
CCCCNC(=O)c1cc2c(=O)n3cccc(C)c3nc2n(CCN2CCOCC2)c1=N	1.07	-1.65
CC(NC(=O)CCSc1nc(-c2ccc3c(c2)OCO3)cc(C(F)(F)F)n1)c1ccccc1 (centres undefined)	0.03	0.02
O=C(NC1CCCC1)C1CC(=O)N(C2CCCCCCC2)C1 (centres undefined)	0.09	0.77
Cn1c(CC(=O)Nc2ccccc2F)nnc1SCC(=O)N1CCOCC1	0.17	-0.36
CC(=O)NCCNc1ccc([N+](=O)[O-])cc1C#N	0.29	2.36
CCCCC(=O)N/N=C/c1ccc(N2CCOCC2)c([N+](=O)[O-])c1	1.71	-0.69
CSc1nc(O)c(C(c2ccccc2Cl)c2c(O)nc(SC)[nH]c2=O)c(=O)[nH]1	0.98	1.83
CC1CCCCN1S(=O)(=O)c1ccc(C(=O)Nc2ccccc2-c2nc3ccccc3[nH]2)cc1 (centres undefined)	0.22	-0.22
O=C(NCCS(=O)(=O)N1CCN(c2ccc(F)cc2)CC1)c1ccc(Br)o1	1.58	-1.24
CN(C)N=Nc1nc2c([nH]1)c(=O)n(C)c(=O)n2C	0.91	-0.57
CC(C)(C)NC(=O)C(c1cccs1)N(C(=O)c1csnn1)c1ccccc1F (centres undefined)	0.89	-1.31
O=C(CCC(=O)c1cccs1)OCC(=O)N1CCN(S(=O)(=O)c2ccccc2)CC1	0.01	0.24
O=C(COc1ccccc1Cl)NCCCNC(=O)c1ccccn1	1.19	0
COC(=O)c1cnn(-c2cc(Oc3cccc(C)c3)ncn2)c1N	0.29	-3.44
C=CCn1c(=N)n(CC(=O)O)c2ccccc21	1.45	0.16
CC(=O)Nc1ccc2c(c1)NC(=O)CC2	0.05	1.95
O=C(/C=C/c1cccs1)N1CCc2ccccc21	0.49	0.76
CCN(CC)S(=O)(=O)c1ccc(NC(=O)COC(=O)CCc2cc(OC)c(OC)c(OC)c2)cc1	0.56	0.79
O=C(c1ccc(Cn2c(=S)[nH]c3ccc(Br)cc3c2=O)cc1)N1CCN(C2CCCCC2)CC1	0.07	0.86
CC(C)(C)N1C(=O)[C@H]2[C@@H](c3ccc(Br)cc3)N3C(=O)N(c4ccc(Br)cc4)C(=O)[C@@]3(Cc3ccccc3)[C@H]2C1=O	0.71	0.64
O=C(CNC(=S)N(Cc1ccccc1F)C1CCCCC1)NCCCN1CCOCC1	0.95	0.83
Further results follow:
SMILES	KCNQ2 pot	KCNQ2 pot baseline
O=C(CCC(=O)Nc1ccccc1Cl)NN=C1CCCC1	1.24	0.07
O=C(O)c1ccccc1-c1ccccc1C(=O)Nc1cccc2ccccc12	0.64	0.73
COc1ccc(-c2nn(-c3ccccc3)cc2C(=O)NCC2CCCO2)cc1 (centres undefined)	1	-1.33
CCOC(=O)c1c(SCC(=O)Nc2nc(C)cs2)nc(=O)[nH]c1C	0.51	1.44
Cc1ccc(SCCN2C(=O)NC(C)(C)C2=O)cc1	0.13	0.56
Nc1ccccc1C(=O)N/N=C1\C2CN3CCN(C2)CC1(c1ccccc1)C3	0.62	2.05
CCOc1ccc(C(=O)NCC(=O)Nc2ncccc2C)cc1OCC	0.04	1.1
Cc1ccc2c(c1)N(C(=O)CCC(=O)NCCCN(C)Cc1ccccc1)CCO2	0.35	-0.93
CCn1c(=NC(=O)CS(=O)(=O)c2ccccc2)sc2cccc(OC)c21	0.12	-2.23
COc1ccc(C)cc1NC(=O)C1CC1c1ccccc1 (centres undefined)	2.72	-0.44
Cc1ccnc(NC(=O)CCC(=O)N(CC(=O)NCc2ccc(F)cc2)Cc2ccco2)c1	0.1	3.79
CCOc1ccccc1-n1c(SCC(=O)N2CCOCC2)nc2ccccc2c1=O	0.41	-2.06
COc1ccccc1NC(=O)NCCc1ccccc1	0.28	-0.02

Screening data deposited in PubChem BioAssay by Johns Hopkins Ion Channel Center.
